# Compound activity deposited in PubChem BioAssay by National Center for Advancing Translational Sciences (NCATS).
# GLA inh pH 4.5: qHTS Assay for Inhibitors of Human alpha-Galactosidase at pH 4.5 | 230,000 tested, under 10 active | purified enzyme, 4-MU-alpha-Gal fluorescence, pH 4.5 | AID 1467, 2008 | activity change, negative = inhibition, % at 105 µM | Alpha-galactosidase A (Homo sapiens), P06280; inconclusive = small, poorly fitted or top-dose-only inhibition, or a rising curve; inactive = flat fitted curve, though single readings scatter; no compound was filed as active;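 note: 0% = full activity with enzyme and -100% = basal without enzyme; dose as in the result columns while the protocol names 77 µM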
# Target sequence (P06280 whole entry, looked up): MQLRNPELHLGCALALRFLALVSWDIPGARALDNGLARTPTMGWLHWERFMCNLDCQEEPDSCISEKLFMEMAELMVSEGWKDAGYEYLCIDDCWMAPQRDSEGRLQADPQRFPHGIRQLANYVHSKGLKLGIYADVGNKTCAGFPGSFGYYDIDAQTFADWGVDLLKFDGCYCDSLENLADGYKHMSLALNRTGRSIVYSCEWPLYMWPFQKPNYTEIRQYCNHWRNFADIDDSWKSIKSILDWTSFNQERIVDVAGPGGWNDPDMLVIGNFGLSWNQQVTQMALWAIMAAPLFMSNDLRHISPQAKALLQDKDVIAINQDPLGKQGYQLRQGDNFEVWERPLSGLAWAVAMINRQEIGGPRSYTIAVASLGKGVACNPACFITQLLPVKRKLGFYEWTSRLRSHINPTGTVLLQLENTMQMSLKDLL
# miR-21 FLuc: qHTS Assay for Modulators of miRNAs and/orActivators of miR-21; Potency, µM (highest dose often 38.3 µM), without a hit: top-dose reporter change, positive = more light; 340,000 tested, under 10 active; HeLa miR-21 FLuc reporter, luciferase, 48 h; active = well fitted rising curve with a large enough effect; inconclusive = small, poorly fitted or top-dose-only effect; inactive = no such curve, though single readings can be large or run the other way;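 note: % of control where 0% means no effect; miR-21 action dims this reporter so a rising signal means less miR-21 action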
#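 HeLa cells stably expressing CMV-driven firefly luciferase with a downstream miR-21 binding sequence, endogenously expressing miR-21, were treated with titrations (up to about 40uM final) for 48 hours at 37 degree Celsius. Luciferase luminescence was read after lysis.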
# Rango complex inh: qHTS Assay for Inhibitors of Rango (Ran-regulated importin-beta cargo) - Importin beta complex formation | Importin subunit beta-1 (Homo sapiens), Q14974 | Rango CFP/YFP FRET sensor + importin beta, 45 min | Potency, µM (series often up to 92.2 µM), for the others: top-dose inhibition of complex formation | 340,000 compounds, 0.031% hits | AID 540263, 2011; active = rising FRET ratio curve, often small or poorly fitted; inconclusive = mostly compound fluorescence or quenching in the first reads; inactive = flat curves in all reads;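 note: potency is the fitted concentration of half-maximal effect; 0% = DMSO wells and 100% = buffer wells lacking importin beta; nearly all actives have a fitted effect of over 15% in size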
#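 FRET biosensor (snurportin 1 IBB flanked by EYFP and cerulean), 50 nM, with compound 5 min, then 0.125 microM importin beta in PBS, 1 mM DTT, 0.02% Tween-20, 0.1% BSA. CFP/YFP ratio read after 45 min at room temperature; pre-read flags interference.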
# Rango release inh: qHTS Assay for Inhibitors of RanGTP induced Rango (Ran-regulated importin-beta cargo) - Importin beta complex dissociation; Snurportin-1 (Homo sapiens) + GTP-binding nuclear protein Ran (Homo sapiens) + Importin …; 340,000 compounds, 0.071% hits; Biochemical FRET Rango-importin beta, RanGTP-induced dissociation; Potency, µM (titrated, usually from 46.1 µM), without a hit: top-dose activity change, negative = inhibition; active means falling FRET ratio curve, often poorly fitted, with flat reads before Ran was added; inconclusive means other falling curves, or compound fluorescence or quenching; inactive means flat or rising ratio curve;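 note: potency is the fitted concentration of half-maximal effect; % of control where 0% means no effect; nearly all actives have a fitted effect of over 45% in size; -100% = wells without RanGTP and RCC1; the record marks most hits as doubtful in a second field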
#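 Rango (0.1 uM)–importin beta (0.25 uM) complex; RanGTP-RCC1 trigger; 45 min RT; CFP/YFP FRET read.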
# * marks the source's active call; other numbers are inactive results; ? = inconclusive; . = no result given; & = joins results of further samples; [ ] = remark or other dose. Not all compounds are listed; rates above refer to the full screens.
GLA inh pH 4.5	miR-21 FLuc	compound	Rango complex inh	Rango release inh
.	.	O=C(CC1SC(N2CCCC2)=NC1=O)Nc1ccc(C(=O)Nc2ccccc2)cc1 (stereo not drawn)	-0.7%	-5%
-3	-67%	O=C(O)c1cccc(N/N=C/c2cccnc2)c1	-4.3%	3%
.	-7%	CCC(C)(C)NC(=O)CN(C(=O)CCC(=O)Nc1nccs1)c1ccc2c(c1)OCCO2	-0.8%	4%
4	0%	COCCOC(=O)c1c(NC(=O)CSc2cccc[n+]2[O-])sc(C(N)=O)c1C	-1.7%	1%
-12	2%	CCCC/C(O)=N\S(=O)(=O)c1ccc(N=NN(C)C)cc1	-2.2%	-2%
.	3%	COCCCn1c(=O)c2sccc2n2c(CCCC(=O)N(C)Cc3ccco3)nnc12	-2.8%	1%
.	-34%	Cc1ccc(CSc2cc(C)[nH]c(=O)n2)cc1	-0.3%	-9%
10	2%	O=C(C1CCCCN1S(=O)(=O)c1ccccc1)N1CCCCC1 (stereo not drawn)	0.0%	7%
.	-15%	O=C(NCc1ccc(Cl)cc1)c1ccc(NC(=O)C2CCCO2)cc1 (stereo not drawn)	-0.2%	20%
0	1%	O=C(/C=C/c1cccs1)N1CCC2(CC1)Oc1ccc(F)cc1C(=O)C21CC(c2ccc(Cl)cc2)=NO1 (stereo not drawn)	-1.8%	16%
-4	-3%	O=C(NCc1ccccc1)NC(O)C(Cl)(Cl)Cl (stereo not drawn)	0.7%	1%
-13	-1%	COC(=O)C1CCN(Cc2ccc(OCCCN3CCN(c4ccc([N+](=O)[O-])cc4)CC3)cc2)CC1	-1.8%	11%
.	2%	COc1ccc(N(CC(=O)Nc2cccc(C)c2)S(=O)(=O)c2c(C)noc2C)cc1	-2.6%	?
-19	-4%	CCOC(=O)N1CCN(Cc2nc(Cc3cccc(C(F)(F)F)c3)no2)CC1	-6.2%	-6%
-1	10%	Cc1ccc(C2=C(c3ccc([N+](=O)[O-])cc3)C(=O)OC2)cc1C	?	4%

GLA inh pH 4.5	miR-21 FLuc	compound	Rango complex inh	Rango release inh
.	-1%	COc1ccc(S(=O)(=O)c2c(O)c3ccc(C(=O)Nc4ccc(F)cc4F)cc3[nH]c2=O)cc1	-0.3%	2%
-4	0%	CC(C)C(C)NC(=O)COc1ccc(OCc2ccccc2)cc1 (stereo not drawn)	0.1%	5%
.	.	CCOC(=O)/C=c1/s/c(=C/c2ccc3cc(OC)ccc3c2)c(=O)n1CC(=O)NCc1ccc2c(c1)OCO2	?	-17%
.	.	C[C@H](CO)N1C[C@H](C)[C@@H](CN(C)S(=O)(=O)c2ccccc2)Oc2c(NC(=O)C3CC3)cccc2C1=O	-2.6%	6%
-4	-2%	O=C(COc1ccc(Cl)cc1)NCc1cn2cc(Cl)ccc2n1	1.5%	16%
-9	-6%	CCCNC(=O)c1cnc(Sc2ncc(C(F)(F)F)cc2Cl)n1C	-0.8%	12%
-4	-1%	O=C(CSc1ccc(-c2ccncc2)nn1)N1CCCC1	-2.9%	1%
-2	1%	CCSc1nnc(Cn2c(=O)sc3ccccc32)n1C	-0.2%	-26%
-1	-28%	CC(C)Sc1nc2ccc(N3C(=O)C4CCCCC4C3=O)cc2s1 (stereo not drawn)	3.2%	-12%
4[21.1 µM]	8%	CCS(=O)(=O)c1nc2ccccc2n1Cc1ccccn1	-1.8%	7%
2	-4%	O=c1cc(-c2ccc([N+](=O)[O-])cc2)nc2cc(-c3ccc(Cl)cc3)[nH]n12	.	.
-7	18%	CC(=O)c1ccc(NC(=S)NC(C)c2ccc(Cl)cc2Cl)cc1 (stereo not drawn)	0.2%	2%
.	.	CCOc1cc(/C=N/NC(=O)c2ccccc2-n2cccc2)ccc1O	3.3%	-9%
2	1%	COc1c(C)cc(C(=O)C2CCCN(S(=O)(=O)c3c(C)noc3C)C2)cc1C (stereo not drawn)	0.1%	0%
5	1%	CN(C)C=Nc1ccc(Cl)c(Cl)c1	13%	15%

# Brought forward from above: six compounds, followed by the next part.
GLA inh pH 4.5	miR-21 FLuc	compound	Rango complex inh	Rango release inh
4[21.1 µM]	8%	CCS(=O)(=O)c1nc2ccccc2n1Cc1ccccn1	-1.8%	7%
2	-4%	O=c1cc(-c2ccc([N+](=O)[O-])cc2)nc2cc(-c3ccc(Cl)cc3)[nH]n12	.	.
-7	18%	CC(=O)c1ccc(NC(=S)NC(C)c2ccc(Cl)cc2Cl)cc1 (stereo not drawn)	0.2%	2%
.	.	CCOc1cc(/C=N/NC(=O)c2ccccc2-n2cccc2)ccc1O	3.3%	-9%
2	1%	COc1c(C)cc(C(=O)C2CCCN(S(=O)(=O)c3c(C)noc3C)C2)cc1C (stereo not drawn)	0.1%	0%
5	1%	CN(C)C=Nc1ccc(Cl)c(Cl)c1	13%	15%
.	5%	O=C(Nc1ccc(S(=O)(=O)N2CCCCC2)cc1)C1CC(=O)N(c2ccccc2)C1 (stereo not drawn)	-0.2%	-12%
1	-13%	O=C(c1ccc(Cl)cc1)c1c[nH]cc1-c1ccccc1	3.2%	29%
.	-5%	CCCCNC(=S)NNC(=O)c1cc(C2CC2)nc2ccccc12	2.7%	16%
2	0%	CCc1cccc(C)c1NC(=O)c1cccc(N(C)C)c1	-6.6%	-17%
2	-2%	CCN(CC)c1ccc(C2NCC(c3ccc([N+](=O)[O-])cc3)O2)cc1 (stereo not drawn)	1.8%	-6%
2	0%	COc1ccc(Cc2noc(CN(C)C3CC(C)(C)NC(C)(C)C3)n2)cc1OC	0.2%	-6%
3	-26%	N#C/C(=C\c1cccs1)C(=O)NCc1ccco1	?	1%
.	2%	Cc1cccc(C)c1N(CC(=O)NCc1ccco1)C(=O)CNS(=O)(=O)c1ccc(F)cc1	-3.6%	0%
.	0%&4%	CCN1C(=NCCCCO)N[C@@H](c2cccc(C(F)(F)F)c2)C(C(=O)OC)=C1C	-0.2%	-12%
4	-17%	CC(=O)c1c(C)[nH]c(C(=O)NCc2ccc(C)cc2)c1C	-1.9%	2%
-1	-3%	O=C(COC(=O)CNS(=O)(=O)c1c(Cl)cccc1Cl)Nc1cccnc1Cl	-0.1%	2%
-7	0%	CCOC(=O)N1CCC(NC(=O)C(Cc2ccccc2)NC(=O)C2CCCCC2)CC1 (stereo not drawn)	-0.6%	-12%
.	.	O=C1CN(C(=O)COC(=O)/C=C/c2ccc(F)cc2)c2ccccc2N1	1.3%	3%
.	.	COc1cccc(CN(C)C(=O)C2CCN(S(=O)(=O)c3cccs3)CC2)c1OC	-2.0%	1%
-2	-1%	O=C(CN1C(=O)NC2(CCCC2)C1=O)Nc1ccccc1-c1ccccc1	-1.0%	-20%

GLA inh pH 4.5	miR-21 FLuc	compound	Rango complex inh	Rango release inh
-11	-1%	S=C(Nc1ccccc1)N1CCC(C2CCN(C(=S)Nc3ccccc3)CC2)CC1	4.0%	-3%
1	6%	CCc1n[nH]c2c1/C(=N/O)CCC2	-0.3%	9%
-6	-1%	Cc1ccc(S(=O)(=O)C(CCC(=O)c2ccc(Cl)cc2)C(N)=O)cc1 (stereo not drawn)	-0.3%	-3%
.	.	CC1CCCC(NC(=O)c2ccc(F)c(S(=O)(=O)N3CCOCC3)c2)C1C (stereo not drawn)	-2.6%	-4%
.	-21%	O=C(Nc1nnc(CCc2ccccc2)s1)c1cccc(F)c1	1.2%	-2%
.	-31%	O=C(COc1ccccc1Cl)Nc1ccc(N2CCCC2)cc1	5.6%	0%
.	.	CCOC(=O)C1CCCN(CC(=O)N(C)c2c(N)n(Cc3ccccc3)c(=O)[nH]c2=O)C1 (stereo not drawn)	4.8%	0%
2	-8%	CCCCNCC(=O)Nc1ccc(NC(=O)CNCCCC)cc1	4.5%	0%
3	-4%	Cc1nnc(SCC(=O)Nc2ncc(Cl)cc2Cl)n1Cc1ccccc1	-0.4%	-1%
-6	-19%	CCOc1ccc(-n2c(SCc3ccc(C#N)cc3)nnc2-c2cccnc2)cc1	7.4%	3%
-1	-28%	CCCCn1cnc2c(cnn2-c2ccc(F)cc2)c1=O	2.4%	-15%
.	7%	C=CCC1(CC=C)CCCN1C(=O)Cn1nnnc1CN(C)C(C)C	0.1%	-10%
9	-10%	COc1ccc(-c2noc(-c3ccccc3C(=O)N3CCOCC3)n2)cc1	3.4%	-5%
1	-1%	CC(C)C(=O)NC(c1ccc(N(C)C)cc1)c1c(O)ccc2ccccc12 (stereo not drawn)	1.5%	13%
-8&-12	-13%&-9%	Cc1sc2nc(CN3CCOCC3)nc(Oc3ccc(NC(=O)c4ccco4)cc3)c2c1C	-2.9%	4%

GLA inh pH 4.5	miR-21 FLuc	compound	Rango complex inh	Rango release inh
3	2%	Cc1cccc(NC(=O)CSc2nnc(CCNC(=O)OC(C)(C)C)o2)c1C	0.3%	-11%
2	-2%	O=C(O)CSc1c2c(nc3cc(C(=O)N4CCCC4)ccc13)CCCC2	1.8%	-7%
3	-36%	CCNc1nc(-c2ccc(Cl)cc2)cs1	-1.4%	16%
-4	-44%	Cc1cc(NCCCn2ccnc2)n2nc(-c3ccc(F)cc3)cc2n1	-1.8%	7%
?	-57%	Cc1cc(-c2nc3cccnc3s2)ccc1NS(=O)(=O)c1cccs1	?	?
-9	-32%	CCOC(=O)c1ccc(CSc2nnc(N)s2)cc1	1.9%	1%
.	-8%	Cc1cc(C)nc(NS(=O)(=O)c2ccc(NC(=O)c3ccccc3[N+](=O)[O-])cc2)n1	2.5%	13%
6	-23%	CCCn1nnc(NC(=O)c2ccc(-c3ccccc3)cc2)n1	-5.5%	0%
.	.	Cc1ccc(CN2CC[C@H]3C=CCc4cccc(c43)C2)cc1	3.2%	5%
4	-8%	CCC1CCCCN1CCCNC(=O)Cn1nc(-c2ccccc2)ccc1=O (stereo not drawn)	?	-3%
5	-6%	Cc1ccc2c(CC(=O)OCc3csc(C)n3)coc2c1	-0.3%	2%
.	.	CSCCC(NS(=O)(=O)c1ccccc1)C(=O)OCc1nc2ccsc2c(=O)[nH]1 (stereo not drawn)	6.7%	21%
4	-36%	CC(C)CC1c2[nH]c3ccccc3c2CCN1C(=O)c1cnccn1 (stereo not drawn)	?	-24%
-2	-4%	O=C(CSc1nnc(COc2ccc(Cl)cc2)o1)OC1CCCCC1	-4.8%	-6%
-2	9%	COC(=O)c1cn(-c2ccccc2)nc1-c1ccncc1	7.5%	2%

GLA inh pH 4.5	miR-21 FLuc	compound	Rango complex inh	Rango release inh
.	0%	COc1ccc(CC(=O)N[C@@H](C)C(=O)N2CCC3(CC2)NCCc2[nH]cnc23)cc1	6.9%	7%
6	-4%	Cc1ccc(OCCOCCNC(C)C)c(Br)c1	1.8%	-11%
-8	-11%	COc1ccc(-n2nc([N+](=O)[O-])c(=NCCc3cccc(C)c3)n2O)cc1	0.2%	-9%
.	-1%	CCN(c1cccc(C)c1)C1C(=O)c2ccccc2N1C(C)=O (stereo not drawn)	-2.7%	-6%
0	-45%	O=C1CC(c2ccco2)Sc2nc3ccccc3n21 (stereo not drawn)	?	-2%
-13	-12%	COc1ccc(CN(C)CC(=O)NC(=O)NCc2ccccc2)c(OC)c1	0.8%	0%
.	.	CCOc1ccc(C(=O)COC(=O)c2nn(CC)c(=O)c3ccccc23)cc1	4.0%	6%
.	29%	CCOc1ccc(CN(C)c2nc(-c3cccnc3)nc3ccccc23)cc1OC	3.5%	5%
.	-2%	Cc1ccc(OS(=O)(=O)c2ccc(N3C(=O)CCC3=O)cc2)cc1	0.5%	6%
-8	-3%	Cc1cccc2cc(C3CC(c4ccco4)=NN3S(C)(=O)=O)c(Cl)nc12 (stereo not drawn)	-0.2%	1%
-7	-56%	Cc1cccc(NC(=S)Nc2ccccn2)c1	6.9%	2%
.	.	CCCCn1c(N)c(N(CC(C)C)C(=O)c2cc3ccccc3cc2OC)c(=O)[nH]c1=O	1.0%	?
14	-42%	Cc1ccc(NC(=O)CSc2ncc3ccccn23)cc1	-1.9%	17%
-20	-5%	Cc1ccc(C(=O)CNc2ccc(F)cc2)cc1	-3.8%	-9%
